# Screening data (PubChem)
# Rce1 inh – yeast Ras-converting enzyme inhibition | calls only | yeast membranes, quenched prenylated peptide cleavage fluorescence | 0.27% of 290,000 active | Q03530;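 active = fall in fluorescence gain of 50% or more versus controls, with final raw signal at or below 3038400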;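 note: plate controls were neutral control wells for no effect and wells lacking membranes for full effect; tested at 10 µM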
# eIF4H FP inh – inhibitors of RNA binding by human eIF4H; Q15056; 0.94% of 290,000 active; eIF4H fluorescence polarization binding assay; inhibition, % at 35 µM;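 active = 50% or more with normal probe brightness, or confirmed in later tests; about a fifth of its hits are not listed in these tables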;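 note: calls also rest on retests at 20 µM and on dose response follow-up; 0% = protein and probe with vehicle and 100% = probe without protein; strong numbers were not always called active; many hits fall short of the cut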
# PABP FP inh – blocks human PABP binding to poly(A) RNA; inhibition, % at 35 µM; fluorescence polarization; 1% of 290,000 active; P11940;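 active = 50% or more with normal probe brightness, or confirmed in later tests; about a fifth of its hits are not listed in these tables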;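 note: calls also rest on retests at 20 µM and on dose response follow-up; controls were probe without protein and protein plus probe with vehicle; some compounds called inactive have numbers as strong as hits; many hits fall short of the cut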
# Target sequence (P11940 whole entry, looked up): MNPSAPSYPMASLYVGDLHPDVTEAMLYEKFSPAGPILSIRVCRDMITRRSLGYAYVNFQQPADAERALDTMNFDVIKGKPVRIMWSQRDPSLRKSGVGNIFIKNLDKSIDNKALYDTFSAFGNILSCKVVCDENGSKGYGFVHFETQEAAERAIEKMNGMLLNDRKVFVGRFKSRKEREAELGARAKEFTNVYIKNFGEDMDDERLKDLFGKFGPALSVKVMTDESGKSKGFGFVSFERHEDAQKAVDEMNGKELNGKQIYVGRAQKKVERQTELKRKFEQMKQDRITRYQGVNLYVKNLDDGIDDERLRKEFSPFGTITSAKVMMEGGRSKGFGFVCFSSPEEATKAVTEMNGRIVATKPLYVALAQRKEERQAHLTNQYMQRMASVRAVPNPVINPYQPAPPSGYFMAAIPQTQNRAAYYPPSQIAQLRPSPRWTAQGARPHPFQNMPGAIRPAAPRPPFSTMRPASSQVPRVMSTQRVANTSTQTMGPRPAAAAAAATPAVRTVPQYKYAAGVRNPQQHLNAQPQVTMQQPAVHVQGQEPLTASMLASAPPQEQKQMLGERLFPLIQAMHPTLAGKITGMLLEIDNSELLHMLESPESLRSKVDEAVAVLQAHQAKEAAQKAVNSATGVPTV
# CSC inhib – cancer stem cell inhibition; cancer stem cell-like cells viability, luminescence; inhibition, % at 7.5 µM; 1.1% of 300,000 active;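 active = mean at 75% or more and at least half the replicates too; tested in HMLE shEcad cells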;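 note: 0% = median of negative and 100% = median of positive control wells; the first replicate is given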
# Yeast UUG start – yeast start codon fidelity modulation; S. cerevisiae UUG-firefly luciferase reporter, luminescence/redox ratio; activity score, % at 18.7 µM; 0.13% of 350,000 active;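 active = replicate mean at a twofold rise or more, about +100% in these data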;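 note: firefly luciferase made from a UUG start codon reports start codon fidelity; reporter light over untreated wells divided by growth signal over untreated wells; some hits fall short of that in this replicate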
# MT1-MMP act inh – MT1-MMP (human) activation inhibition | P50281 | HT1080 RFP-PRO-GFP cells, GFP/RFP ratio fluorescence, overnight; percent of plate control window, DMSO zero | 0.061% of 360,000 active | GFP/RFP ratio change, % at 20 µM;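 active = GFP/RFP ratio change of at least 30% with cell ATP level not reduced by more than half and red fluorescence within 50% of control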; note: strong numbers were not always called active
#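 Material: RFP-PRO-GFP reporter HT1080 cells. Dosing: single-point 20 µM compound, 1% DMSO. Controls: DMSO and RFP-L50D-GFP cell wells. Timing: cells overnight before dosing, compound overnight, 37 °C, 5% CO2. Measure: GFP/RFP fluorescence ratio.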
# Env fusion inh – blocks HIV Env-driven cell-cell fusion. HeLa-JRFL Env/CEM21 cell fusion, luciferase. inhibition, % at 12.3 µM. 1.1% of 360,000 active;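 active = mean replicate inhibition score of at least 50 and every replicate individually at or above 50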;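 note: 0% = plate neutral controls and 100% = maraviroc near 300 nM; one replicate is shown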
# MT1-MMP act inh RFP – recorded beside MT1-MMP act inh, whose call it bears; RFP signal change, %; measured here: RFP expression control read;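 0 = vehicle wells; hits needed this value within 50% of zero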
# Starred values were filed as active, the others as inactive; i = inactive; x = no result given; & = joins results of further samples; [ ] = remark or other dose. Rows are unselected; overall some 2.9% were active at least once.
SMILES,Rce1 inh,eIF4H FP inh,PABP FP inh,CSC inhib,Yeast UUG start,MT1-MMP act inh,MT1-MMP act inh RFP,Env fusion inh
COCCn1c(SCC(=O)N(C)c2ccccc2)nc2c([nH]c3ccccc32)c1=O,i,5,9,1,-17,-5,-2,25
O=C(Nc1ccc2c(c1)OCCO2)c1oc2ccccc2c1NC(=O)C1CC1,i,-14,4,-12,x,-3,-6,14
CCOC(=O)N1CCC(Nc2c(NCCCN(CC)Cc3ccccc3)c(=O)c2=O)CC1,i,-3,10,9,-3&-18,-3&0,-1&3,7&3
C#CCOCCOCCOCCNc1nc(N2CCN(C(=O)CCCCCCCCCCNC(=O)Cn3cc(C[C@@H](C)O)nn3)CC2)nc(N2CCN(C(=O)CCCCCCCCCCNC(=O)[C@H](CCCN=C(N)N)n3cc(C[C@@H](C)CC)nn3)CC2)n1,i,x,x,-14,8,9,0,x
Cc1cc(C)c(C)c(S(=O)(=O)NCc2ccc(C(=O)N3CCCCC3)cc2)c1C,i,-11,15,-19,-35,-10,-6,x
CCOc1ccccc1-n1c(=S)sc2c(=O)n(-c3ccc(F)cc3)c(SCC(=O)O)nc21,i,6,-4,x,5,-7,0,9
Cc1cc(C(=O)CSc2nnnn2-c2ccccc2)c(C)n1CC1CCCO1 (stereo unspecified),i,13,39,6,2,10,0,-90
ON1C(c2ccccc2C(F)(F)F)N(O)[C@H]2CCCC[C@H]21 (stereo partly specified),i,-2,1,-14,0,2,-1,-59
CCCCC(=O)N/N=C(C)/C=C/c1ccccc1F,i,2,-6,x,x,1,2,-16
CCOc1cc(C(=O)Nc2ccon2)cc(OCC)c1OCC,i,5,-4,4,-30,-2,-2,-13
COc1cc(F)c(C2=CC(=O)C[C@H](c3ccc(Cl)cc3)C2)cc1F,x,x,x,78*,-18,0,-1,-4
O=C(Nc1ccc(F)cc1)C1CCN(C(=O)c2ccc(F)cc2)CC1,x,x,x,-6,-3,2,1,-11
CCC(=O)N(C)CCc1cc2c(c(OC)c1/C=N/NC(=O)c1ccncc1)OCO2,i,4,9,-16,-9,3,1,3
Cc1ccc(NS(=O)(=O)c2c(C(=O)N3CCOCC3)c(C)n(C)c2C)cc1,i,4,0,-20,-11,-3,-4,2
Cc1ccc(-n2nc3c(=O)n(C(C)C(=O)NC4CC4)nc(C)c3c2C)cc1 (stereo unspecified),i,x,x,-2,-5,4,-4,-1

# Five successive entries from above, for reference:
SMILES,Rce1 inh,eIF4H FP inh,PABP FP inh,CSC inhib,Yeast UUG start,MT1-MMP act inh,MT1-MMP act inh RFP,Env fusion inh
COCCn1c(SCC(=O)N(C)c2ccccc2)nc2c([nH]c3ccccc32)c1=O,i,5,9,1,-17,-5,-2,25
O=C(Nc1ccc2c(c1)OCCO2)c1oc2ccccc2c1NC(=O)C1CC1,i,-14,4,-12,x,-3,-6,14
CCOC(=O)N1CCC(Nc2c(NCCCN(CC)Cc3ccccc3)c(=O)c2=O)CC1,i,-3,10,9,-3&-18,-3&0,-1&3,7&3
C#CCOCCOCCOCCNc1nc(N2CCN(C(=O)CCCCCCCCCCNC(=O)Cn3cc(C[C@@H](C)O)nn3)CC2)nc(N2CCN(C(=O)CCCCCCCCCCNC(=O)[C@H](CCCN=C(N)N)n3cc(C[C@@H](C)CC)nn3)CC2)n1,i,x,x,-14,8,9,0,x
Cc1cc(C)c(C)c(S(=O)(=O)NCc2ccc(C(=O)N3CCCCC3)cc2)c1C,i,-11,15,-19,-35,-10,-6,x

# Following part
SMILES,Rce1 inh,eIF4H FP inh,PABP FP inh,CSC inhib,Yeast UUG start,MT1-MMP act inh,MT1-MMP act inh RFP,Env fusion inh
COc1ccc(NS(=O)(=O)c2ccc(N)cc2)nn1,i,-4,-14,-10,x,x,x,x
CCC(OC(=O)C(NC(=O)c1ccccc1)c1ccccc1)C(=O)Nc1cc(C)on1 (stereo unspecified),i,-9,-4,-21,18,1,4,x
Cc1ccc(NC(=O)C2CCN(S(=O)(=O)c3ccc4c(c3)C(C)(C)C(=O)N4C)CC2)c(C)c1,i,-9,-2,2,2,6,0,1
CCOC(=O)c1cc(-c2csc(COc3ccccc3)n2)on1,i,-12,5,-13,x,3,2,-12
COCC(C)n1c(SCC(=O)NCCC2=CCCCC2)nc2ccccc2c1=O (stereo unspecified),i,-4,-9,0,14,-3,-8,-56
CN1CCN(CCNC(=O)c2ccc(CS(=O)c3ccc(Br)cc3)o2)CC1 (stereo unspecified),x,x,x,x,-10,-1,7,10
CCc1nc(N2CCN(S(C)(=O)=O)CC2)c2c3c(sc2n1)CCCC3,i,-3,4,-3,x,-2,-4,32
CCN(CC(=O)NCc1cccs1)CC(=O)Nc1ccc(C(N)=O)cc1,x,x,x,-15,-9,-3,2,x
NS(=O)(=O)c1ccc2nc(NC(=O)CS(=O)(=O)c3ccccc3)sc2c1,i,4,16,1,-19,0,2,-4
CCC(=O)Nc1ccc(C(=O)NNC(=O)c2cccs2)cc1,i,2,-8,6,-21,-2,5,-8
CCn1c(SCC(=O)N2CCN(C(=O)c3ccco3)CC2)nnc1C(C)C,i,4,-3,10,x,1,3,-1
COC(=O)c1ccc(NC(=S)Nc2ccccc2)cc1,i,-1,-9,8,-22,3,3,x
COc1ccccc1CN(C(=O)CNC(=O)c1ccco1)C(C(=O)NCC1CCCO1)c1ccc(OC)c(OC)c1 (stereo unspecified),i,3,-8,-13,-3,2,7,0
CCOC(=O)N1CCC(NC(=O)CS(=O)(=O)Cc2nc(-c3ccccc3Cl)oc2C)CC1,i,2,12,-7,-6,0,-6,-3
OCCCCc1nccc2c1[nH]c1ccccc12,i,6,3,-11,x,3,-1,-2
CN(Cc1c(F)cccc1Cl)C(=O)COC(=O)Cn1cnc2ccccc2c1=O,x,x,x,x,1,1,5,63*
CC(=O)c1nnn(-c2c(F)cccc2F)c1C,i,-8,13,5,2,1,5,-4
O=C(CSCc1ccc(Cl)cc1)Nc1ccc(O)cc1C(=O)O,i,-8,3,-20,-7,3,3,3
COC(=O)c1ccccc1NC(=O)c1cc[n+](C)cc1,i,x,x,-6,-9,0,2,-6
O=C(CCN1C(=O)C2C3C=CC(C3)C2C1=O)Nc1ccc(F)cc1 (stereo unspecified),i,-10,-2,-3,0,3,7,x
CC1(C(=O)NCCC#N)CCN1C(=O)C1(c2ccccc2)CCCC1 (stereo unspecified),x,x,x,x,-15,2,2,15
COc1ccc(S(=O)(=O)N2CCC(c3cc(-c4cccc5ccccc45)n[nH]3)CC2)cc1,i,1,2,20,-8,-3,-10,12
CC(C)=CC(=O)NCCc1ccccc1,i,1,-5,-12,-2,-4,1,-30
CCN1C(=NCC2CC2)N[C@@H](c2ccccc2)C(C(=O)OC)=C1C,x,x,x,-13,-9,0,4,-27
CC(=O)NC(C)C12CC3CC(CC(CC(=O)O)(C3)C1)C2 (stereo unspecified),i,2,15,6,-14,-2,-3,x
COc1cc([C@@H]2CC=C(C(=O)O)[C@H](c3ccccc3F)N2S(=O)(=O)c2ccc(C)cc2)cc(OC)c1OC,x,x,x,-7,9,-2,3,14
CC(=O)c1cccc(NC(=O)c2cccc(S(=O)(=O)N3CCOCC3)c2)c1,i,-3,13,x,-4,2,1,-1
Cc1ccc(NC(=O)CN(C)C(=O)CSc2ccc3c(c2)OCCO3)cc1,x,x,x,-10,-16,-4,0,x
Cc1cc2c(OCC(O)CNC(C)(C)C)cccc2[nH]1 (stereo unspecified),i,-3,3,2,-13,2,1,x
C#CCNC(=O)C1=C[C@@H](C2CC2)C[C@@H](OCCCCO)O1,i,-15,-6,-2,7&-12,11,-2,-14[16.7 µM]
O=C(CNC(=O)c1sc2ccccc2c1Cl)NCc1cccc(C(F)(F)F)c1,i,x,x,-1,-18,-3,0,-12
Cc1ccc(S(=O)(=O)N(C)c2cc(S(=O)(=O)N3CCC(C)CC3)c(C)cc2C)cc1,i,1,3,5,x,-4,-10,x
Clc1cccc(Cl)c1-c1nnc2cccc(Cl)n12,i,17,10,-2,-4,-10,-3,-248
Cc1cc(C)cc(NC(=S)/C(=C(\[O-])c2ccc(Cl)s2)[n+]2cccc(C)c2)c1,i,3,-14,4,x,0,0,16
Cc1ccc(NC=C(S(=O)(=O)c2ccccc2)S(=O)(=O)c2ccccc2)cc1,i,8,10,8,x,-2,4,12
Cn1cnc2c(=O)[nH]cc([N+](=O)[O-])c21,i,-1,2,-5,x,5,9,-19
CCCCSc1nc2[nH]ncc2c(=O)[nH]1,i,0,-4,-4,-1,-1,0,-37
Cc1ccc(S(=O)(=O)NCCC(=O)NCc2ccc3c(c2)OCO3)cc1C,i,1,8,-1,6,-4,-2,1
CCOC(=O)c1c(C)nc2c(c(SC)nn2-c2ccccc2)c1N,i,9,0,28,-5,-3,-4,x
COc1cccc(C(C)(O)c2nc(-c3cccc(C#N)c3)cs2)c1 (stereo unspecified),x,x,x,x,-8,-3,-10,27
O=C(COC(=O)c1ccc[nH]c1=O)NCC1CCCO1 (stereo unspecified),i,-3,-2,-14,-4,-3,-1,x
CCC(C(=O)NCCCN1CCN(C)CC1)n1nc(C)n2c(cc3occc32)c1=O (stereo unspecified),i,1,5,-10,-19,2,2,-1
CCCCCN(C(=O)NC(=O)Nc1ccccc1C)S(C)(=O)=O,i,-3,9,-4,-11,-1,-1,x
C[C@@H](C(=O)Nc1ccc2ccccc2c1)[C@H]1C[C@]1(C)[C@H](NC(=O)c1cccnc1)c1ccccc1,x,8,8,15,x,x,x,68*
Nc1nnc(SCC(=O)OCC(=O)c2ccccc2)s1,i,-2,33,0,x,1,6,-8
CCOC(=O)c1csc(NC(=O)CSc2nnnn2-c2ccc(OCC)cc2)n1,i,-4,-2,x,-25,7,-4,x
Cn1nc(C(=O)OCC(=O)c2ccc(Cl)cc2)c2ccccc2c1=O,x,x,x,-13,-18,-1,1,-12
COCc1cc(C)nc(SCC(=O)Nc2cccc(C)c2)c1C#N,i,4,15,-13,-6,-1,-3,x
N#Cc1ccc(-c2nc3c4ccccc4ccn3c2Cc2cccc(Cl)c2)cc1,x,x,x,x,-8,0,1,-78
O=[N+]([O-])c1ccc(C=NN=Cc2ccc([N+](=O)[O-])cc2)cc1,x,x,x,x,-9,3,6,-6
COc1cccc(C(=O)N2CCN(S(C)(=O)=O)CC2)c1,i,-2,-1,-10,-5,8,7,1
CCN(C[C@H]1N[C@@](CC)(C(=O)OC)[C@H]2C(=O)N(Cc3ccccc3)C(=O)[C@@H]12)C(=O)c1ccccc1,x,x,x,x,-7,1,1,-5
Cc1nc(N2CCN(c3ccccn3)CC2)c2c(C)c(C(=O)Nc3ccc(F)cc3Cl)sc2n1,i,0,10,-5,13,-2,-14,1
Cc1ccc(N=C2C(=O)Nc3ccc(C)c(Br)c32)cc1,i,6,-6,2,0,-7,7,x
CCCCN(C(=O)CCNC(=O)NC12CC3CC(CC(C3)C1)C2)c1c(N)n(CCCC)c(=O)[nH]c1=O,i,x,x,x,-3,-8,-1,4
CC1CN(c2nnc(NC(=O)c3ccccc3)s2)CC(C)O1 (stereo unspecified),i,3,-4,-3,x,1,-1,-23
O=C(COc1ccc(Cl)cc1)NC1CC1,i,-6,6,-12,-2,-8,-8,2
CCC(CC)NC(=O)COC(=O)c1cccc(C)c1O,x,-4,4,-7,-13,-3,1,-80
O=C1CCCC2=C1C(c1ccccc1)C1C(=O)c3ccccc3C1=N2 (stereo unspecified),i,-1,-10,-39,x,7,-8,30
Cc1nn(C)cc1CNC(=O)/C=C/c1cnn(C)c1,i,5,13,8,x,5,6,x
# New compounds follow.
SMILES,Rce1 inh,eIF4H FP inh,PABP FP inh,CSC inhib,Yeast UUG start,MT1-MMP act inh,MT1-MMP act inh RFP,Env fusion inh
COCCCNc1nc2cc(OC)c(OC)cc2c2nc(-c3ccccc3)nn12,i,-4,2,-6,-9,4,-3,18
CCCCOc1nc2c(c(=O)n(C)c(=O)n2C)n1C,i,-7,8,-2,-10,5,4,7
CSc1nc(C(C)C)ccc1CNC(=O)CC(C)c1ccccc1 (stereo unspecified),i,10,-7,14,-2,-1,-6,9
CN1CCN(CCNC(=O)Cn2c(=O)c3cccn3c3ccc(F)cc32)CC1,i,-5,7,13,-4,-3,1,-1
